PABP FP inh: PABP poly(A) RNA binding inhibitors, primary screen, biochemical, fluorescence polarization, uHTS; Polyadenylate-binding protein 1 (Homo sapiens), P11940; inhibition, % at 35 µM; actives 1% (n = 290,000);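 active = 50% or more with normal probe brightness, or confirmed in later tests; about a fifth of its hits are not listed in these tables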;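 note: calls also rest on retests at 20 µM and on dose response follow-up; controls were probe without protein and protein plus probe with vehicle; some compounds called inactive have numbers as strong as hits; many hits fall short of the cut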
Target sequence (P11940 whole entry, looked up): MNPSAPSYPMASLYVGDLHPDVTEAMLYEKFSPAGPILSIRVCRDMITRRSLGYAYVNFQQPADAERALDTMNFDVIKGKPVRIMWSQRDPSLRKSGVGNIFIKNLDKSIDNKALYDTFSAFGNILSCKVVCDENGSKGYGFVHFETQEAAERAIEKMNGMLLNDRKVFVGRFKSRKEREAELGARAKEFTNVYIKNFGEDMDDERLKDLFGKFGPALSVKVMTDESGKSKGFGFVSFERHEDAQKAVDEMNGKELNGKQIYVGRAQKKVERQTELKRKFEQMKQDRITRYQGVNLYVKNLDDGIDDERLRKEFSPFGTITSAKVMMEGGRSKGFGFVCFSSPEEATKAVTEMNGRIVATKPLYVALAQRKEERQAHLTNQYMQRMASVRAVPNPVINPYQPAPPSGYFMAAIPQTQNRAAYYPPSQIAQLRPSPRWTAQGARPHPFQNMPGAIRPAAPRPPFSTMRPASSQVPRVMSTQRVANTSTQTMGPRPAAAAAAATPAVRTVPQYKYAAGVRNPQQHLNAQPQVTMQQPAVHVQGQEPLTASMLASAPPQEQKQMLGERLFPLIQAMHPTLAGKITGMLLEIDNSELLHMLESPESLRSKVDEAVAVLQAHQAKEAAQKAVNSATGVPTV
Rce1 inhib: yeast Rce1p protease inhibitors, primary screen, biochemical, fluorescence, cell-free homogeneous; yeast membranes, quenched prenylated peptide cleavage fluorescence; calls only; actives 0.27% (n = 290,000);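 active = fall in fluorescence gain of 50% or more versus controls, with final raw signal at or below 3038400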;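 note: plate controls were neutral control wells for no effect and wells lacking membranes for full effect; tested at 10 µM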
Target sequence (Q03530 whole entry, looked up): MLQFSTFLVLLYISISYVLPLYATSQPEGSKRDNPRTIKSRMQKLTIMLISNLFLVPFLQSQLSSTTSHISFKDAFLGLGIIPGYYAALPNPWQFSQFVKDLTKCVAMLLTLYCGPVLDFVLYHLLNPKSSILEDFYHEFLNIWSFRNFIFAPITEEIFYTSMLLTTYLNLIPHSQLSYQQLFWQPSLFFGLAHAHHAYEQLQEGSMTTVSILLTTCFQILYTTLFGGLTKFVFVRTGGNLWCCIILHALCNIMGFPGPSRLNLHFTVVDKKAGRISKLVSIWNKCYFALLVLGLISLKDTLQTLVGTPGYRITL
UUG fidelity: modulators of yeast start codon fidelity, primary screen, whole organism, S. cerevisiae, single point, plate reader | S. cerevisiae UUG-firefly luciferase reporter, luminescence/redox ratio | activity score, % at 18.7 µM | actives 0.13% (n = 350,000);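 active = replicate mean at a twofold rise or more, about +100% in these data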;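 note: firefly luciferase made from a UUG start codon reports start codon fidelity; reporter light over untreated wells divided by growth signal over untreated wells; some hits fall short of that in this replicate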
eIF4H inh: human eIF4H binding inhibitors, primary screen, translation initiation inhibitor project, biochemical, uHTS, fluorescence polarization; Eukaryotic translation initiation factor 4H (Homo sapiens), Q15056; inhibition, % at 35 µM; eIF4H fluorescence polarization binding assay; AID 2012, 2009; actives 0.94% (n = 290,000);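 active = 50% or more with normal probe brightness, or confirmed in later tests; about a fifth of its hits are not listed in these tables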;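 note: calls also rest on retests at 20 µM and on dose response follow-up; 0% = protein and probe with vehicle and 100% = probe without protein; strong numbers were not always called active; many hits fall short of the cut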
MT1-MMP act inh: blockers of MT1-MMP proenzyme processing, primary screen, HT1080 RFP-PRO-GFP cells, GFP/RFP fluorescence; GFP/RFP ratio change, % at 20 µM; actives 0.061% (n = 360,000); GFP/RFP ratio fluorescence, overnight; percent of plate control window, DMSO zero; Matrix metalloproteinase-14 (Homo sapiens), P50281;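 active = GFP/RFP ratio change of at least 30% with cell ATP level not reduced by more than half and red fluorescence within 50% of control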; note: strong numbers were not always called active
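Assay system: HT1080 cells carrying an RFP-PRO-GFP reporter | Dosing: Single dose of 20 µM compound, 1% DMSO final | Incubation: Cells overnight before dosing, compound overnight, 37 °C, 5% CO2 | Evaluation: GFP/RFP fluorescence ratio | Control set: DMSO and RFP-L50D-GFP cell wells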
Env fusion inh: inhibitors of HIV-1 Env-driven cell-cell fusion, primary screen, HeLa-JRFL effector, CEM21 target cells, luciferase; inhibition, % at 12.3 µM; actives 1.1% (n = 360,000); AID 651610, 2012;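 active = mean replicate inhibition score of at least 50 and every replicate individually at or above 50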;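 note: 0% = plate neutral controls and 100% = maraviroc near 300 nM; one replicate is shown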
CSC inhib: cancer stem cell viability inhibitors, primary screen, luminescence; cancer stem cell-like cells viability; inhibition, % at 7.5 µM; actives 1.1% (n = 300,000);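 active = mean at 75% or more and at least half the replicates too; tested in HMLE shEcad cells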;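 note: 0% = median of negative and 100% = median of positive control wells; the first replicate is given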
MT1-MMP act inh RFP: second read-out of MT1-MMP act inh, no call of its own (marks repeat the call); RFP signal change, %; measured here: RFP expression control read;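 0 = vehicle wells; hits needed this value within 50% of zero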
Numbers without * were called inactive. A portion of the library; rates above refer to the full screens.

For CC(=O)c1ccc(NC(=O)Cn2nc(C)c([N+](=O)[O-])c2C)cc1 the results were PABP FP inh 10, Rce1 inhib inactive, UUG fidelity -9, eIF4H inh -6, MT1-MMP act inh -1, Env fusion inh -7 and MT1-MMP act inh RFP 1.
For CCC(=O)Nc1ccc2c(c1)Cc1cc(NC(=O)CC)ccc1-2 the results were PABP FP inh 12, Rce1 inhib inactive, UUG fidelity -15, eIF4H inh -4, MT1-MMP act inh 1, Env fusion inh -15, CSC inhib 0 and MT1-MMP act inh RFP -1.
Screening Cc1cc(NS(=O)(=O)c2ccc(Nc3nc(-c4sc(NC(=O)c5ccccc5)nc4C)cs3)cc2)no1 returned PABP FP inh 16, Rce1 inhib inactive, eIF4H inh 4 and CSC inhib 31.
`CN1CC(=O)N(CC(=O)Nc2ccc(Br)cc2F)C1=O` gave PABP FP inh -6, Rce1 inhib inactive, UUG fidelity -6, eIF4H inh -12, MT1-MMP act inh -1, Env fusion inh 26, CSC inhib 0 and MT1-MMP act inh RFP 0.
For CCC(=O)N(c1nnc(SCC(=O)Nc2ccccc2Cl)s1)C1CC1 the results were UUG fidelity -22, MT1-MMP act inh -2, CSC inhib -23 and MT1-MMP act inh RFP -2.
CC(=O)c1sc(NC(=O)C2(F)C(F)(F)C(F)(F)C(F)(F)C(F)(F)C2(F)F)nc1C was read as PABP FP inh 5, Rce1 inhib inactive, UUG fidelity -9, eIF4H inh 3, MT1-MMP act inh -39, CSC inhib -11 and MT1-MMP act inh RFP -31.
For CSCCC(NC(=O)c1occc1C)C(=O)O (stereo not given) the results were PABP FP inh 8, Rce1 inhib inactive, eIF4H inh 3, MT1-MMP act inh -4, CSC inhib -7 and MT1-MMP act inh RFP -2.
COC(=O)C1(C)NC(c2cccc(C)c2)C2C(=O)N(c3ccc(F)cc3)C(=O)C21 (stereo not given) was read as PABP FP inh -2, Rce1 inhib inactive, UUG fidelity -35, eIF4H inh -4, MT1-MMP act inh 15, Env fusion inh 15, CSC inhib -34 and MT1-MMP act inh RFP -3.
Screening COCCNC(=O)C(c1ccc(C)o1)N(C(=O)c1snc(C(N)=O)c1N)c1ccc(C)cc1 (stereo not given) returned PABP FP inh 4, Rce1 inhib inactive, UUG fidelity -7, eIF4H inh -8, MT1-MMP act inh 5, Env fusion inh 1, CSC inhib 3 and MT1-MMP act inh RFP -2.
O=S(=O)(Cc1ccc(Cl)cc1)N1CCCCCC1 was read as PABP FP inh 2, Rce1 inhib inactive, UUG fidelity 5, eIF4H inh -6, MT1-MMP act inh 4, Env fusion inh -6 and MT1-MMP act inh RFP 3.
`COc1cccc(-c2nc(CS(=O)(=O)CC(=O)NC3CC3)c(C)o2)c1` gave PABP FP inh -2, Rce1 inhib inactive, UUG fidelity -12, eIF4H inh -9, MT1-MMP act inh 0, Env fusion inh 21, CSC inhib -10 and MT1-MMP act inh RFP 0.
Screening Cc1oc(C(C)(C)C)cc1C(=O)N1CCN(C(c2ccccc2)c2ccccc2)CC1 returned PABP FP inh -1, Rce1 inhib inactive, eIF4H inh -6, MT1-MMP act inh -4, Env fusion inh 22, CSC inhib 49 and MT1-MMP act inh RFP -5.
Screening COCCN(C(=O)Cc1cccs1)c1nnc(-c2cccnc2)s1 returned PABP FP inh 6, Rce1 inhib inactive, UUG fidelity -7, eIF4H inh -4, MT1-MMP act inh 0, Env fusion inh -4, CSC inhib 8 and MT1-MMP act inh RFP -1.
`COc1ccc2nc(SCC(C)=O)c(C#N)cc2c1` gave PABP FP inh 8, Rce1 inhib inactive, UUG fidelity -16, eIF4H inh -6, MT1-MMP act inh -147, Env fusion inh -191, CSC inhib 6 and MT1-MMP act inh RFP -9.
`CCOC(=O)CSc1cc(C(F)(F)F)nc(-c2ccccn2)n1` gave PABP FP inh 6, Rce1 inhib inactive, UUG fidelity -30, eIF4H inh -14, MT1-MMP act inh -1, Env fusion inh -74, CSC inhib -2 and MT1-MMP act inh RFP -2.
`Cc1cccc(-n2ncc3c2CCCC3NC(=O)C2(C(N)=O)CC2)c1C` (stereo not given) gave PABP FP inh -17, UUG fidelity -13, eIF4H inh -6, MT1-MMP act inh 10, Env fusion inh 2, CSC inhib 7 and MT1-MMP act inh RFP -29.
`COc1cc(CCC(=O)OCC(=O)Nc2cccc(S(=O)(=O)N(C)C)c2)cc(OC)c1OC` gave PABP FP inh -6, Rce1 inhib inactive, eIF4H inh -8, MT1-MMP act inh 1, Env fusion inh -1, CSC inhib 4 and MT1-MMP act inh RFP 0.
CC(=O)Nc1ccc(C(=O)OCC(=O)N2CCCC2)cc1 was read as PABP FP inh 6, Rce1 inhib inactive, UUG fidelity -14, eIF4H inh -5, MT1-MMP act inh -2, Env fusion inh -1, CSC inhib -14 and MT1-MMP act inh RFP 1.
Screening C/C(Cc1ccccc1)=N\NC(=O)CNC(=O)Cc1ccccc1 returned PABP FP inh -3, Rce1 inhib inactive, eIF4H inh -2, MT1-MMP act inh -1, Env fusion inh 9, CSC inhib -12 and MT1-MMP act inh RFP 2.
Screening CC1CCCCN1C(=O)COC(=O)c1ccc2c(c1)C(=O)N(Cc1ccco1)C2=O (stereo not given) returned UUG fidelity -10, MT1-MMP act inh -2, Env fusion inh 0, CSC inhib -11 and MT1-MMP act inh RFP 3.
Screening COc1ccc(C2CC(c3ccccc3)=NN2C(=O)COC(=O)c2nc3nc(C)cc(C)n3n2)cc1 (stereo not given) returned PABP FP inh -8, Rce1 inhib inactive, eIF4H inh -8, MT1-MMP act inh 2, Env fusion inh -13, CSC inhib -26 and MT1-MMP act inh RFP -2.
`COC(=O)c1sccc1NC(=O)CSCCc1ccccn1` gave PABP FP inh -6, Rce1 inhib inactive, UUG fidelity -4, eIF4H inh -1, MT1-MMP act inh 4, Env fusion inh 2, CSC inhib -2 and MT1-MMP act inh RFP 4.
`CCc1nc2ccc(C(=O)NCc3ccc(C)o3)cc2nc1CC` gave PABP FP inh 3, Rce1 inhib inactive, eIF4H inh 1, MT1-MMP act inh -1, Env fusion inh 6, CSC inhib -6 and MT1-MMP act inh RFP 0.
`CN(C)c1ccc(-c2ccnc3c2CC(C)(C(=O)NCC2CCOCC2)O3)cc1` (stereo not given) gave UUG fidelity -8, MT1-MMP act inh 2, Env fusion inh 15 and MT1-MMP act inh RFP 4.
`Cc1ccc(NNC(=O)c2cc(C(C)(C)C)nn2Cc2ccccc2)cc1` gave PABP FP inh -3, Rce1 inhib inactive, UUG fidelity -6, eIF4H inh 6, MT1-MMP act inh 2, Env fusion inh -7, CSC inhib 93* and MT1-MMP act inh RFP 0.
O=C(O)CCCC(=O)N1CCN(c2cccc(Cl)c2)CC1 was read as PABP FP inh 3, Rce1 inhib inactive, UUG fidelity -8, eIF4H inh -9, MT1-MMP act inh 12, CSC inhib 4 and MT1-MMP act inh RFP 3.
For Cn1c(SCC(=O)NC2CCCCC2)nnc1-c1ccccc1O the results were PABP FP inh 5, Rce1 inhib inactive, UUG fidelity -21, eIF4H inh -11, MT1-MMP act inh 2, CSC inhib -8 and MT1-MMP act inh RFP 1.
Screening CCOC(=O)COc1ccc(S(=O)(=O)NC2CC2)cc1 returned PABP FP inh 7, Rce1 inhib inactive, UUG fidelity -22, eIF4H inh -4, MT1-MMP act inh 0, Env fusion inh -18, CSC inhib -4 and MT1-MMP act inh RFP 0.
Screening COc1ccc(NC(=O)/C=C/c2ccc(C)o2)cc1S(=O)(=O)N1CCOCC1 returned PABP FP inh -1, Rce1 inhib inactive, eIF4H inh 23, MT1-MMP act inh -2, Env fusion inh 11, CSC inhib 10 and MT1-MMP act inh RFP 2.
C=CCOc1ccc(/C=N/O)cc1Cl was read as PABP FP inh 5, Rce1 inhib inactive, UUG fidelity -17, eIF4H inh -1, MT1-MMP act inh -2, Env fusion inh -31, CSC inhib -6 and MT1-MMP act inh RFP 5.
`N/C(COc1ccc(Cl)cc1)=N\NS(=O)(=O)c1ccccc1` gave PABP FP inh -13, Rce1 inhib inactive, UUG fidelity -18, eIF4H inh -8, MT1-MMP act inh 6, Env fusion inh -39, CSC inhib -13 and MT1-MMP act inh RFP 6.
`COc1ccc2cc(/C=N/NC(=O)c3c(Cl)cnn3C)c(Cl)nc2c1` gave PABP FP inh 19, Rce1 inhib inactive, UUG fidelity -19, eIF4H inh 27, MT1-MMP act inh -6, Env fusion inh 8, CSC inhib 2 and MT1-MMP act inh RFP 3.
CCN(CC)CCNC1=NCCn2c1cc1cc(OC)ccc12 was read as PABP FP inh 50, Rce1 inhib inactive, UUG fidelity -12, eIF4H inh -10, MT1-MMP act inh 9, Env fusion inh -20, CSC inhib 16 and MT1-MMP act inh RFP -1.
O=C(NCC1COc2ccccc2O1)c1c[nH]c2ccc(S(=O)(=O)N3CCOCC3)cc2c1=O (stereo not given) was read as PABP FP inh 5, UUG fidelity -10, eIF4H inh 0, MT1-MMP act inh 7 and MT1-MMP act inh RFP -3.
Cc1ccnc(SCc2cn3c(C)cccc3n2)n1 was read as PABP FP inh 5, Rce1 inhib inactive, eIF4H inh -2, MT1-MMP act inh -2, Env fusion inh -7, CSC inhib -18 and MT1-MMP act inh RFP 1.
`COc1ccc(-c2csc3ncn(-c4ccc(C)cc4)c(=O)c23)cc1OC` gave PABP FP inh 10, Rce1 inhib inactive, UUG fidelity 13, eIF4H inh -8, MT1-MMP act inh -1, Env fusion inh -3, CSC inhib 64 and MT1-MMP act inh RFP 0.

Of the compounds above, 2 contain a tert-butyl group:
Screening Cc1oc(C(C)(C)C)cc1C(=O)N1CCN(C(c2ccccc2)c2ccccc2)CC1 returned PABP FP inh -1, Rce1 inhib inactive, eIF4H inh -6, MT1-MMP act inh -4, Env fusion inh 22, CSC inhib 49 and MT1-MMP act inh RFP -5.
`Cc1ccc(NNC(=O)c2cc(C(C)(C)C)nn2Cc2ccccc2)cc1` gave PABP FP inh -3, Rce1 inhib inactive, UUG fidelity -6, eIF4H inh 6, MT1-MMP act inh 2, Env fusion inh -7, CSC inhib 93* and MT1-MMP act inh RFP 0.

New compounds follow
Screening COc1ccc2c(c1)CCC(C)N2S(=O)(=O)c1ccc(C2CNC(=O)C2)cc1 (stereo not given) returned PABP FP inh -16, Rce1 inhib inactive, eIF4H inh -6, MT1-MMP act inh 3, CSC inhib -9 and MT1-MMP act inh RFP 4.
`CN(CCc1ccccc1)C(=O)c1[nH]c(C(F)(F)F)nc1-c1ccccc1` gave UUG fidelity 2, MT1-MMP act inh 5, Env fusion inh -1 and MT1-MMP act inh RFP 3.
O=C(Cn1nnc(-c2ccccc2)n1)N/N=C/c1ccc(-c2ccc(Cl)cc2)o1 was read as PABP FP inh 1, Rce1 inhib inactive, UUG fidelity -18, eIF4H inh -11, MT1-MMP act inh 0, Env fusion inh 10, CSC inhib -5 and MT1-MMP act inh RFP 1.
OCCNc1nc(Nc2ccccc2)nc(Nc2ccccc2)n1 was read as PABP FP inh 5, Rce1 inhib inactive, UUG fidelity -9, eIF4H inh -8, MT1-MMP act inh 4, CSC inhib 1 and MT1-MMP act inh RFP -2.
Screening COCCOc1nc2c(c(=O)n(C)c(=O)n2C)n1CCc1ccccc1 returned PABP FP inh -5, Rce1 inhib inactive, UUG fidelity -20, eIF4H inh -1, MT1-MMP act inh 2, CSC inhib 21 and MT1-MMP act inh RFP -2.
For CCCN(CCC)Cc1cc(=O)oc2cc(C)c(C)cc12 the results were UUG fidelity 8, MT1-MMP act inh 0, Env fusion inh -4 and MT1-MMP act inh RFP 0.
